VDR inh = vitamin D3 receptor (human) inhibition. VDR-SRC2-3 peptide fluorescence polarization, 2 h. AID 504847. Potency, µM, for the others: max response, negative = inhibition, hits mostly inhibitors. 0.93% of 400,000 active. P11473; active = well fitted inhibition curve with a large enough effect; inconclusive = small, poorly fitted or top-dose-only effect, or another doubt; inactive = no such curve, though single readings can be large or run the other way; also: series mostly up to about 120 µM
Target sequence (P11473 whole entry, looked up): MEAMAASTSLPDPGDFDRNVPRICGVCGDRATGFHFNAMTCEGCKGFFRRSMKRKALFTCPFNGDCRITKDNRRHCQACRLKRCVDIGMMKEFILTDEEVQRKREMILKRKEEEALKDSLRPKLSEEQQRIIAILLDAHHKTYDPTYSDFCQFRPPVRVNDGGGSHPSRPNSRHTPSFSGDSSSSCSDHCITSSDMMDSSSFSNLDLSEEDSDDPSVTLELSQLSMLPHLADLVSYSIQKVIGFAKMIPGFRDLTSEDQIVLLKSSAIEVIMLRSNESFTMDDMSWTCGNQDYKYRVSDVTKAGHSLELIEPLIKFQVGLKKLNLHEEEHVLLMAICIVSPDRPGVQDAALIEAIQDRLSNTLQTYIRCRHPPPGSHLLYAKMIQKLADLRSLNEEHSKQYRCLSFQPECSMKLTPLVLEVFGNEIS
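FP read-out; VDR + SRC2-3 coactivator peptide; 23 nl compound by pintool; 2 h RT incubation; reagents held at 4 deg C, protected from light.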
Numbers without * were called inactive; ? = inconclusive; [ ] = another dose, or the depositor's remark. % is scaled to controls: 0 for no effect and ±100 for the full control effect; potency is read from the fitted curve at half-maximal effect.

compound | VDR inh
CCOc1ccc(NC(=O)C2CCCN(S(C)(=O)=O)C2)cc1 (stereo not drawn) | 7%
CCCCOC(=O)C1=C(C)Nc2ncnn2C1c1cccc(OC)c1OC (stereo not drawn) | -8%
COC(=O)c1ccc(N2C(=O)CC(SCC(=O)Nc3ccc(OC)cc3)C2=O)cc1 (stereo not drawn) | ?
O=C(COc1ccccc1)NCc1ccc2c(c1)CCN2C(=O)c1ccccc1 | 12%
Cc1ccc(-n2c(Cc3cccc4ccccc34)n[nH]c2=S)c(C)c1 | -14%
FC(F)(F)c1cc(-c2cccs2)nc2nc(N3CCOCC3)sc12 | -21%
C/C(CC(=O)NC1CCCC1)=N\NC(=O)C1CCCCC1 | -12%
CCCCCCCn1c2c(c(=N)c3ccccc31)CCC2 | -20%
COc1ccc(C(=O)Nc2ccccc2)cc1NC(=O)c1ccc([N+](=O)[O-])cc1 | -26%
COc1cccc(CNCCSc2nnnn2-c2ccccc2)c1OC | 0%
CCCOc1ccc(N2CC(C(=O)NC3=NCCS3)CC2=O)cc1 (stereo not drawn) | -2%
O=c1c2cnn(-c3ccccc3)c2ncn1Cc1ccco1 | -17%
CCn1nc(C)cc1C(=O)Sc1ccc(Cl)cc1Cl | 79µM*
CCC(=O)Nc1ccc(S(=O)(=O)Nc2ncccn2)cc1 | -9%
Cc1cc(C)c2cc(C(=O)N(C)C3CCN(C)CC3)[nH]c2c1 | -5%
COc1cc2c(cc1OC)C(COc1ccc(F)cc1)N(C(=O)c1cccc(F)c1)CC2 (stereo not drawn) | 10%
CCn1c(SCC(=O)N2CCCCC2C)nc2ccsc2c1=O (stereo not drawn) | -3%
CCC(CC)C(=O)Nc1cccc(/C(C)=N/NC(=O)c2ccccc2Cl)c1 | 8%
COc1ccc(Nc2nc(N)nc(CSc3n[nH]c(-c4ccccc4)n3)n2)cc1 | -9%
CNC(=O)C(=O)NCCN1CCN(C(=O)c2ccc([N+](=O)[O-])cc2)CC1 | -6%
CCOc1ccc(CNc2nc3ccccc3n2CCN2CCOCC2)cc1 | 0%
O=C(Nc1ccc(NC(=O)c2ccco2)nc1)c1ccccn1 | 2%
O=C1N[C@H](Cc2ccccc2)CO1 | -13%
CCN(CC)S(=O)(=O)N1CCC(C(=O)NC2CCCc3ccccc32)CC1 (stereo not drawn) | 6%
CC(=O)n1nc(-c2cccnc2)nc1N | -3%
Cc1cc(=O)n2[nH]c(C(F)(F)F)c(-c3ccccc3)c2n1 | -4%
CCCCc1ccc(NC(=O)CSc2nc3ccccc3nc2N2CCOCC2)cc1 | -5%
COc1ccccc1N1CCN(C(=O)Cn2cnc3sc(C)c(S(=O)(=O)N4CCC(C)CC4)c3c2=O)CC1 | ?
CCn1c(=O)c([N+](=O)[O-])c(NCc2ccc3c(c2)OCO3)c2ccccc21 | -20%
CCN(CC)CCCNC(=O)C1CCN(C(=O)c2cc3sccc3n2Cc2ccc(F)cc2)CC1 | 6%
CN(Cc1ccccc1F)C(=O)CN1CCN(S(=O)(=O)c2ccc3c(c2)OCCCO3)CC1 | 0%
CCCCCNc1c(C(=O)OCC)c(=O)[nH]c2ccccc12 | -18%
C=CCC(C(=O)OC)(C(=O)OC)c1ccc([N+](=O)[O-])cc1[N+](=O)[O-] | -2%
CC1=C(C(=O)OCC2CCCCC2)C(c2ccc(F)cc2)NC(=O)N1 (stereo not drawn) | ?
CCC1(C)Cc2c(sc3nnn(CC(=O)Nc4ccc(Cl)cc4)c(=O)c23)CO1 (stereo not drawn) | -2%
N#Cc1cccc(NC(=O)CSc2ccccc2)c1 | 20%
COC(=O)c1ccc(NC(=O)Nc2cccc(F)c2)cc1 | -11%
CCCCc1oc2c(c(=O)c1C)C(=O)CC(c1ccccc1)C2 (stereo not drawn) | -13%
S=C(NCCc1ccccc1)N/N=C/c1ccccc1Cl | 2%
CC(C)(C)S(=O)(=O)c1cnc2c(-c3ccsc3)cnn2c1N | -23%
Cc1nc2ccc(NC(=O)CCS(=O)(=O)c3ccc(Cl)cc3)cc2s1 | ?
Cc1cc(C)c(S(=O)(=O)NCCS(=O)(=O)N2CCN(c3ccccc3)CC2)c(C)c1 | 6%
CNC(=O)[C@@H]1C[C@H]1[C@@H](NC(=O)OCc1ccccc1)c1ccccc1 | 2%
O=C1C2C3CCC(C3)C2C(=O)N1c1ccc2ccccc2c1 (stereo not drawn) | -11%
CCN1C2=C(C(=O)CCC2)C(c2ccc(O)cc2)C2=C1CCCC2=O | -4%
CCOC(=O)C(Sc1cc(C)nc(N)n1)C(C)=O (stereo not drawn) | -20%
CCCC(C(=O)NC(C)(C)C)N(CC1CCCO1)C(=O)c1snc(C(N)=O)c1N (stereo not drawn) | ?
COC(=O)[C@@H]1CCCN1C(=O)CCc1nnc(C2CCCCC2)o1 | 1%
Cc1cc(NC(=O)CSCC(=O)Nc2ccc(Cl)c(C(F)(F)F)c2)no1 | 1%
CSc1ccc(CNC(C)(C)CO)cc1 | 0%
O=C(O)CCSc1nnc(COc2cccc3cccnc23)n1-c1ccccc1 | -12%
CCOC(=O)c1cnc2c(C)cc(Cl)cc2c1NCCc1ccc(OC)c(OC)c1 | 3%
COc1cc2cc(C(c3nnnn3C3CCCC3)N(C)C3CCCCC3)c(=O)[nH]c2cc1OC (stereo not drawn) | -7%
COc1ccc(Cl)c(N2CCN(CCCNC(=O)Nc3ccc(C)cc3)CC2)c1 | 21%
COc1ccc(NC(=O)c2ccc3nccnc3c2)cc1 | 16%
CCc1nnc(NC(=O)c2ccc(S(=O)(=O)N3CCCC(C)C3)cc2)s1 (stereo not drawn) | -14%
Cc1ccc(C2CC(=O)Nc3c2ccc2ccccc32)cc1[N+](=O)[O-] (stereo not drawn) | -6%
COc1cc([C@@H]2C[C@H]3CN(c4ccccc4)C(=O)[C@]34CCCN24)cc(OC)c1OC | 0%
O=C1CC(N2CCC(c3nc4ccccc4o3)CC2)C(=O)N1Cc1cccs1 (stereo not drawn) | 0%
COc1ccccc1NC(=O)Cn1cnc2sc(C(=O)NCc3ccco3)c(C)c2c1=O | -3%

The results go on:
compound | VDR inh
CCCN1C(=O)c2ccccc2NC1c1ccc(OC)c(COc2ccc([N+](=O)[O-])cc2)c1 (stereo not drawn) | -23%
COc1ccc(CC(=O)NC2CC(=O)N(c3cccc(F)c3)C2)cc1 (stereo not drawn) | -6%
O=C(CCC1CCCC1)Nc1ccc([N+](=O)[O-])cn1 | -12%
COc1ccc(S(=O)(=O)N2N=C(c3ccc(NS(C)(=O)=O)cc3)CC2c2ccco2)cc1 (stereo not drawn) | 5%
Cc1ccc(S(=O)(=O)c2ccc(Cl)cc2)cc1S(=O)(=O)NC(C)C(=O)O (stereo not drawn) | 9%
Cn1c(O)c(N=NC(=O)c2cc(-c3cccs3)nc3ccccc23)c2ccccc21 | -4%
CNC(=O)c1ccc2nc(-c3ccco3)c(-c3ccco3)nc2c1 | ?
Nc1ccccc1C(=O)NNC1=C(C(=O)C(F)(F)F)CCC1 | 32%[activator]
COc1ccc(C2NC(=O)NC(C)=C2C(=O)OC2CCCC(C)C2)cc1 (stereo not drawn) | -22%
Cc1ccc(C)c(N2CCN(S(=O)(=O)c3ccc(-c4cc(C)no4)s3)CC2)c1 | ?
Cc1cc(C)c(S(=O)(=O)N2CCCC2=O)cc1N(C)S(C)(=O)=O | -16%
CCOC(=O)C1(CCCc2ccccc2)CCN(C(=O)c2cc(C)nn2CC)CC1 | -12%

As entered above:
For VDR inh, COc1ccc(S(=O)(=O)N2N=C(c3ccc(NS(C)(=O)=O)cc3)CC2c2ccco2)cc1 (stereo not drawn) is listed with 5%
For VDR inh, COc1ccc(C2NC(=O)NC(C)=C2C(=O)OC2CCCC(C)C2)cc1 (stereo not drawn) is listed with -22%

Continued.
compound | VDR inh
O=C(Cn1cccn1)N1CCCC(N2CCN(Cc3ccc4c(c3)OCO4)CC2)C1 (stereo not drawn) | 8%
COc1ccc(/C=C/C(=O)Nc2c(C)nn(C)c2C)cc1COc1ccc(Br)cc1 | 1%
O=c1cc(COc2ncnc3ccccc23)nc2sccn12 | 1%
COc1ccc(CNS(=O)(=O)c2cccc(S(=O)(=O)N3CCOCC3)c2)cc1 | 4%
Cc1ccc(S(=O)(=O)N2CC(O)C[C@H]2C(=O)OCC(=O)Nc2ccc(N3CCOCC3)cc2)cc1C (stereo partly drawn) | 17%
COc1cc(C(=O)Nc2nnc(S(=O)(=O)N(C)c3ccccc3)s2)cc(OC)c1OC | 14%
CCCCOc1ccc(C2CC(=O)N(C)C2=O)cc1 (stereo not drawn) | 7%
CCN(CC)C(=O)CSc1nc2c(sc(=S)n2-c2ccccc2)c(=O)n1-c1ccc(OC)c(OC)c1 | 2%
Cn1c(=O)[nH]c(=O)c2c1nc(Sc1nc3ccccc3s1)n2Cc1ccccc1 | 4%
CCOc1ccccc1Nc1nc2ccccc2n2cnnc12 | -1%
COc1ccc(NC(=O)N2CCN(c3cccc(C(F)(F)F)c3)CC2)cc1 | 17%
COc1cc2c(cc1OC)C(c1ccccc1F)OC(=O)C2 (stereo not drawn) | -6%
O=C(Nc1c(C(=O)C2CC2)oc2ccccc12)c1ccc(Cl)cc1 | 16%
O/N=C/c1ccnc(SCc2ccc(Cl)cc2)n1 | -2%
CCOc1ccccc1N1CSC2=C(C#N)C(c3c(OC)ccc4ccccc34)CC(=O)N2C1 (stereo not drawn) | ?
Nc1n[nH]c(-c2ccccc2)n1 | -5%
Cc1ccc(NC(=O)CSc2nc(=O)n(CCCN(C)C)c3c2CCC3)cc1F | -5%
CCOC(=O)c1c(C)n(C)c2ccc(OC)c(NC(=O)CCN3CCC(Cc4ccccc4)CC3)c12 | -12%
Cc1ccnc2nc(C(=O)OCC(=O)Nc3ccc4c(c3)OCCO4)nn12 | 8%
CCOc1ccc(S(=O)(=O)N2CCOCC2)cc1NC(=O)CSC(=S)N1CCCC1 | -11%
Cc1ccc(C(C)C)c(OCC(O)CNC2CCCC2)c1 (stereo not drawn) | -20%
CC/C(=N\NC(=O)c1ccc(CN(C)S(=O)(=O)c2ccc(C)cc2)cc1)c1ccc(OC(F)F)cc1 | -21%
COC(=O)c1cc(S(=O)(=O)N2CCCC(C)C2)cn1C (stereo not drawn) | 5%
O=C(O)CCCNC(=O)/C=C/c1ccco1 | -14%

Records listed above that bear a hit mark in VDR inh.
compound | VDR inh
CCn1nc(C)cc1C(=O)Sc1ccc(Cl)cc1Cl | 79µM*

Retrieved one by one from above:
compound | VDR inh
CCOc1ccc(NC(=O)C2CCCN(S(C)(=O)=O)C2)cc1 (stereo not drawn) | 7%
CCCCOC(=O)C1=C(C)Nc2ncnn2C1c1cccc(OC)c1OC (stereo not drawn) | -8%
COC(=O)c1ccc(N2C(=O)CC(SCC(=O)Nc3ccc(OC)cc3)C2=O)cc1 (stereo not drawn) | ?
COc1ccc(C2NC(=O)NC(C)=C2C(=O)OC2CCCC(C)C2)cc1 (stereo not drawn) | -22%
Cc1ccc(C(C)C)c(OCC(O)CNC2CCCC2)c1 (stereo not drawn) | -20%

Continued:
compound | VDR inh
Cc1ccc(S(=O)(=O)c2nc(-c3ccco3)oc2SCC(C)C)cc1 | -5%
COCCn1c(SCc2ccccc2Cl)nc2c1c(=O)[nH]c(=O)n2C | -4%
COC(=O)Cc1c(C)c2cc3c(c(C)c2oc1=O)OCN(CCc1ccc(OC)cc1)C3 | 11%
COc1cccc(Oc2ccc(N/C=C/C(=O)C(C)(C)C)cc2)c1 | 5%
Cc1ccc(F)cc1NC(=O)N1CCN(C2c3ccccc3-c3ccccc32)CC1 | -5%
Cn1nnnc1SCC(=O)N1c2ccccc2CCc2ccccc21 | 9%
CC(=O)N1CCC(N2CCN(c3ccccc3F)CC2)CC1 | -11%
CN1CCN(S(=O)(=O)c2ccc(NC(=S)NC(=O)C3CC3)cc2)CC1 | -8%
COC(=O)c1cc(CSc2nc3ccccc3c(=O)n2C)oc1C | 21%
COc1cccc(C(=O)NCCSc2ccc(F)cc2)c1 | -18%
Cc1nc2ccc(S(=O)(=O)N(C)CC(=O)Nc3ccc(Br)c(C)c3)cc2s1 | 1%
CCOC(=O)N1CCC(NC(=O)C2CCCN(C(=O)c3cc4sccc4n3C)C2)CC1 (stereo not drawn) | -14%
Oc1[nH]c2ccccc2c1N=Nc1cccc(Cl)c1 | -2%
CC(C)CN1C(=O)/C(=C/c2cccs2)NC1=S | 11%
CCc1nnc(NC(=O)c2cccnc2SC)s1 | -1%
Cc1sc(NC(=O)c2ccc(F)cc2)c(CN2CCCCCC2)c1C | -23%
OC1CCN(Cc2cccc(Oc3ccccc3)c2)CC1 | -18%
O=C(CNC(=O)c1cc(=O)[nH]c2ccc(S(=O)(=O)N3CCOCC3)cc12)Nc1ccc(F)c(F)c1 | 7%
CN1/C(=C\C(=O)Nc2cccnc2)c2ccccc2CC1(C)C | 5%
CCOc1ccc2ncc(C(=O)c3ccc(OC)cc3)c(N3CCN(CC)CC3)c2c1 | -3%
Cc1cccc(NC(=S)N=Nc2c(O)[nH]c3ccccc23)c1 | -2%
Fc1cc(F)c2ncc3c(-c4ccccc4)nn(-c4cccc(Cl)c4)c3c2c1 | -2%
CC(C)(C)OC(=O)NNC(=O)NC12CC3CC(CC(C3)C1)C2 | -13%
CCCCNC(=O)c1sc2ncccc2c1-n1cccc1 | 1%
Cc1ccc(-c2nnn(CC(=O)N(CC(=O)NC3CCCCC3)c3ccccc3F)n2)o1 | -25%
COCCC(=O)N1CCc2ccc(NC(=O)c3ccc(C(F)(F)F)cc3)cc2C1 | -21%
COc1cc(NC(=O)C(NC(=O)C2CCC(C)CC2)C(C)C)cc(OC)c1OC (stereo not drawn) | 11%
CCc1nnc(NC(=O)CSc2nc(-c3ccccc3)c(-c3ccccc3)o2)s1 | 1%

Compound activity as filed in PubChem BioAssay.

This is a subset; the hit share may differ from the screen's.
